A488 autofl = qHTS Assay for Spectroscopic Profiling in A488 Spectral Region; compound autofluorescence, A488 spectral region, dye equivalency; active compounds read high; max dye equivalency, M; 0.1% of 59,000 active; active = above 10 nM dye equivalent; inconclusive = 1 to 10 nM; inactive = 1 nM or less; about half of its hits are not listed in these tables;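 further: highest value over a series up to 38 µM; compound alone in buffer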
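Readout is A488 dye-equivalent concentration, calibrated by a per-plate six-point Alexa 488 series. Compounds in 100 mM Tris buffer pH 8.0 were incubated 15 min at room temperature. Plates were imaged using 480 nm excitation/540 nm emission filters.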
TSHR ag = qHTS Assay for Agonists of the Thyroid Stimulating Hormone Receptor. HEK293-CNG-TSHR cells (CNG channel as cAMP sensor), membrane potential dye, cAMP. AID 926, 2007. 0.48% of 73,000 active. Potency, µM (series often up to 57.1 µM), inactives show at the top dose activation, hits mostly activators. Thyrotropin receptor (Homo sapiens), P16473; active = well fitted activation curve of enough size with the parental cells flat; inconclusive = any curve in the parental cells; inactive = parental cells flat and receptor cells flat or falling; further: potency means the concentration at half of the fitted maximal effect; % of control where 0% means no effect; weak receptor curves with flat parental cells got no call and are not listed
Target sequence (P16473 whole entry, looked up): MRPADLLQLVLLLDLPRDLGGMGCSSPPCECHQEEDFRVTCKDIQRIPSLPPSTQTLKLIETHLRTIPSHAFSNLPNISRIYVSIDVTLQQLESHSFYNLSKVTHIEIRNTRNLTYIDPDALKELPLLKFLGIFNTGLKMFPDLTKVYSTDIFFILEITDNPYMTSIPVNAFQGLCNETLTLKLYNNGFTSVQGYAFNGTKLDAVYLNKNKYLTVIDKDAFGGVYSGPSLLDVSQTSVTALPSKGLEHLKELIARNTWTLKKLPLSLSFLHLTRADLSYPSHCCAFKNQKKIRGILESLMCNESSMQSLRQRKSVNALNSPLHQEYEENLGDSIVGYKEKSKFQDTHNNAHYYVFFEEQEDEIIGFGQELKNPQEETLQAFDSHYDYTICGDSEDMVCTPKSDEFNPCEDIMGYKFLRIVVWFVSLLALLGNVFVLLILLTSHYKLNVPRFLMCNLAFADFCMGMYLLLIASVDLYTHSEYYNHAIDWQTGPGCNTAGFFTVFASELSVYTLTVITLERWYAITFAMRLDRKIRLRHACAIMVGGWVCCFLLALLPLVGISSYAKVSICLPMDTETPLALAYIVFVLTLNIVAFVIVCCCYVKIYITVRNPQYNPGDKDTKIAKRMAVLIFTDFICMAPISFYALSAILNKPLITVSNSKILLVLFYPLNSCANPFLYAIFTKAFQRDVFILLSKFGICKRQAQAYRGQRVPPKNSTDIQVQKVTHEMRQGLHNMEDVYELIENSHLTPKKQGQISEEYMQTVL
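cAMP rise detected as CNG-channel membrane depolarization by fluorescent dye (emission 590 nm), 30 min after compound, following 60 min dye loading containing 100 uM RO 20-1724 at room temperature. Cells: TSHR/CNG HEK 293, with parental CNG HEK 293 as control.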
Resorufin autofl = qHTS Assay for Spectroscopic Profiling in Resorufin Spectral Region. max dye-equivalent concentration, M. 0.04% of 59,000 active. Compound fluorescence, resorufin region 547/598 nm, buffer; active compounds read high; active = above 10 nM dye equivalent; inconclusive = 1 to 10 nM; inactive = 1 nM or less; a few of its hits are not listed in these tables; further: highest value over a series up to 38 µM
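Intrinsic fluorescence profiled in the resorufin window (ex 547 nm, em 598 nm) after 15 min at room temperature in pH 8.0 Tris buffer (100 mM); responses normalized against a six-point resorufin standard series as dye-equivalent concentration.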
AID923 = qHTS Assay for Allosteric/Competitive Inhibitors of Caspase-1: Spectroscopic Profiling in AFC Spectral Region; compound fluorescence, AFC spectral region (405/520 nm); almost no hit is shown here; Potency, µM (highest dose often 57.5 µM), for inactives: top-dose fluorescence increase, hits mostly activators; 1.1% of 75,000 active; active means well fitted activation curve with a large enough effect; inconclusive means small, poorly fitted or top-dose-only effect;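 further: potency means the concentration at half of the fitted maximal effect; 0% is about no effect; scaled to a free AFC standard on each plate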
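Titrations up to 57 uM read every 20 sec for 3 min (405/520 nm) with 50 nM caspase 1 and 5 uM Ac-WEHD-AFC, pH 7.5 HEPES buffer. Fluorescence-vs-time intercept gave baseline, scaled against on-plate AFC standard.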
A647 fluor = qHTS Assay for Spectroscopic Profiling in A647 Spectral Region | 59,000 tested, under 10 active | max dye-equivalent concentration, M | Compound fluorescence, A647 channel (570/671 nm), Tris buffer; active means above 1 µM dye equivalent; inconclusive means 0.1 to 1 µM; inactive means 0.1 µM or less;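 further: values scaled relative to a standard on each plate; highest value over a series up to 38 µM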
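Compound fluorescence was measured in 100 mM Tris buffer, pH 8.0, after 15 min at room temperature, using 570 nm excitation and 671 nm emission filters. Signal was normalized to a per-plate Alexa 647 standard curve and expressed as dye-equivalent concentration at each compound concentration.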
Active calls of the source: *; i = inactive; u = inconclusive; x = no result given; & = joins results of further samples; [ ] = remark or other dose. A portion of the library (hit frequency here may not be typical).

SMILES | A488 autofl | TSHR ag | Resorufin autofl | AID923 | A647 fluor
Cc1cccc(CC(=O)Nc2c3c(nn2-c2cccc(Cl)c2)CS(=O)C3)c1 (stereo not given) | i | u | i | 0.9% | 8.1e-09
Cc1noc(C)c1COC(=O)c1ccc2ccccc2n1 | i | 15% | i | -2.8% | 1e-09
Cn1c(=NC(=O)CN2C(=O)C3CC=CCC3C2=O)sc2ccccc21 (stereo not given) | i | u | i | 3.6% | 1e-09
COc1cc(C2C(C(=O)N3CCOCC3)=C(C)NC3=C2C(=O)CCC3)ccc1OC(C)=O (stereo not given) | i | 2% | i | 4.2% | 1e-09
CC(=O)Nc1ccc(-c2nn3c(C)nnc3s2)cc1C | i | 0% | i | 2.6% | 5.1e-08
CN=C(N)NCCC[C@H](N)C(=O)O | i | 15%&5% | i | -2.5%&-0.7% | 5.7e-08
CC(=O)N1CCC2(CC1)CN(C(c1ccccc1)c1ccccc1)C2 | i | -5% | i | 2.5% | 1e-09
C=CCN1C(=O)CS/C1=N/c1nccs1 | i | -8% | i | -1.6% | 1.6e-08
CSc1ccc(/C=N/n2c(C)cc(C)cc2=O)cc1 | x | -1%[11.4 µM] | x | 4.2% | x
C#CCCCO/N=C1/C[C@@H](O)[C@@H](O)[C@@H]2[C@@H]3C(=O)N(Cc4ccccc4)C(=O)[C@H]3CC[C@H]12 | x | -6%[11.4 µM] | x | -1.3%[11.5 µM] | x
COC(=O)Nc1ccc(S(=O)(=O)N(CCO)CC(F)(F)C(F)F)cc1 | i | 1% | i | -0.3% | 4.3e-08
Cc1cc(O)c(NC(=O)c2ccc(Br)o2)cc1C | x | -9%[11.4 µM] | x | 0.9% | x
CN1CCN(CCP(=O)(c2ccccc2)c2ccccc2)CC1 | x | 3% | x | -1.4% | x
COc1cccc(N=C2SC(C(=O)Nc3ccc(F)cc3)CC(=O)N2C)c1 (stereo not given) | i | -18% | i | -0.9% | 3.1e-09
COCCOC(=O)c1c(C)oc2ccc(OC(=O)c3cccs3)cc12 | x | u | x | 5.5% | x

Compound profiles, from the list above. Order of values: A488 autofl, TSHR ag, Resorufin autofl, AID923, A647 fluor
Results for `CN1CCN(CCP(=O)(c2ccccc2)c2ccccc2)CC1` : x, 3%, x, -1.4%, x
Results for `COCCOC(=O)c1c(C)oc2ccc(OC(=O)c3cccs3)cc12` : x, u, x, 5.5%, x
Results for `CN=C(N)NCCC[C@H](N)C(=O)O` : i, 15%&5%, i, -2.5%&-0.7%, 5.7e-08
Results for `Cc1cc(O)c(NC(=O)c2ccc(Br)o2)cc1C` : x, -9%[11.4 µM], x, 0.9%, x
Results for `Cn1c(=NC(=O)CN2C(=O)C3CC=CCC3C2=O)sc2ccccc21` (stereo not given) : i, u, i, 3.6%, 1e-09

New compounds follow
SMILES | A488 autofl | TSHR ag | Resorufin autofl | AID923 | A647 fluor
O=C1c2ccccc2C(=O)N1CCCCN1CCN(CCCCN2C(=O)c3ccccc3C2=O)CC1 | i | -14% | i | -0.7% | 2e-09
Cc1ccc2cc(CN(Cc3cccs3)Cc3nnnn3C(C)(C)C)c3nnnn3c2c1 | i | u | i | -1.1% | 4.2e-09
COc1cc(NS(=O)(=O)c2ccc(NC(=O)c3ccc(C)o3)cc2)nc(OC)n1 | i | 8% | i | 0.9% | 1.6e-09
CCCCC(=O)Nc1ccc(C(=O)N2CCCC(C(=O)OCC)C2)cc1 (stereo not given) | i | -2% | i | -1.0% | 5.5e-08
C=CCN(C(=O)Nc1ccc(Cl)cc1)C1CC(=O)N(c2ccc(OC)cc2)C1=O (stereo not given) | i | x | i | -1.7% | 4.4e-08
Cc1cccc2cc(CN(CCCO)C(=O)Nc3ccc(Cl)cc3)c(=O)[nH]c12 | i | 14% | i | -2.1% | 1e-09
COc1cc(C(=O)Nc2cccc(-c3nncn3C)c2)cc(OC)c1OC | x | 10% | x | -0.3% | x
CSC1=C(C#N)C(C)C2=C(CC(C)(C)CC2=O)N1 (stereo not given) | i | -1% | i | 5.0% | 1.8e-09
CCn1cc(C(=O)NCC2CCCO2)c(=O)c2cc(S(=O)(=O)N3CCCCCC3)ccc21 (stereo not given) | i | 19% | i | 0.1% | 1e-09
COc1cc(NC(=O)C2C3C=CC(C3)C2C(=O)O)c(OC)cc1Cl (stereo not given) | x | 0% | x | 0.0% | x
CCCc1ccc(Oc2cn[nH]c2-c2ccc(O)c(C)c2O)cc1 | i | x | i | -0.7% | 1e-09
Cc1oc(-c2ccc3c(c2)OCCO3)cc1C(=O)NC(CCC(=O)O)C(=O)O (stereo not given) | i | 5% | i | 1.7% | 3.8e-08
O=C(COC(=O)c1ccc(S(=O)(=O)N2CCOCC2)cc1)NC1CCCC1 | i | -10% | i | 1.8% | 1.4e-08
CCCCN(C)C(=O)C1CCN(Cc2ccccn2)CC1 | i | -3% | i | 1.5% | 4.3e-09
O=C(CN1CCN(Cc2ccccc2)CC1)NCC1COc2ccccc2O1 (stereo not given) | x | -4% | x | -0.8% | x

(listing goes on)
SMILES | A488 autofl | TSHR ag | Resorufin autofl | AID923 | A647 fluor
Cn1c(=O)[nH]c(=O)c2c1nc(OC(=O)c1ccccc1)n2CC(O)COc1ccccc1 (stereo not given) | i | 1% | i | 3.0% | 3.3e-08
COc1cccc(NC(=O)NC2(C(F)(F)F)Oc3ccccc3O2)c1 | i | -3% | i | 0.5% | 1e-09
Nc1ccc(C(=O)c2ccccc2C(=O)O)cc1Cl | i | 0% | i | 0.7% | 2.8e-09
O=C(Nc1ccc2c(c1)oc1ccccc12)N1CCOCC1 | i | -9% | i | 0.4% | 3.3e-08
Cc1ccc(-n2c(SCC(=O)NCc3ccco3)nc3nc4c(cc3c2=O)COC(C)(C)C4)cc1 | i | x | i | x | 4e-09
CCOC(=O)/C=C1\NC(C)(C)Cc2cc(OC)c(O)cc21 | i | 3% | i | 0.5% | 7.2e-09
O=C(CN1C(=O)C2CC=C(Cl)CC2C1=O)N1CCOCC1 (stereo not given) | i | 2% | i | 0.0% | 1e-09
CCC(=O)Nc1ccc(Cl)c(NC(=O)c2ccc(Br)o2)c1 | i | 2% | i | -3.2% | 1e-09
CCn1c(SCC(=O)N2CCc3ccccc32)nc2c(c1=O)SC(C)C2 (stereo not given) | x | -7% | x | 7.5% | x
Cc1cc(C)nc(N2CCN(c3nc(C)cc(C)n3)CC2)n1 | i | -7% | i | -0.3% | 6.4e-09
O=C(c1nn2c(C(F)(F)F)cc(-c3ccccc3)nc2c1Cl)N1CCOCC1 | i | 4% | i | 2.1% | 1.6e-08
CCN1C(=O)c2cccc3c(S(=O)(=O)Nc4c(C)n(C)n(-c5ccccc5)c4=O)ccc1c23 | i | x | i | 0.5% | 6.4e-09
O=C(CCSc1nc(-c2ccco2)cc(C(F)(F)F)n1)N1CCCc2ccccc21 | i | u | i | -2.3% | 1e-09
COC(=O)[C@H](CC(C)C)NC(=O)Nc1ccc2c(c1)OCCO2 | i | 2% | i | 0.1% | 2.9e-08
O=C(Nc1cccc(Cl)c1Cl)C1CCN(c2ncccn2)CC1 | i | 0% | i | 0.7% | 1.3e-08

(cont.)
SMILES | A488 autofl | TSHR ag | Resorufin autofl | AID923 | A647 fluor
CCOC(=O)c1cc(C)n(Cc2ccccc2)c1C | i | u | i | -0.8% | 1e-09
Cc1ccc(C(C)C)c(OCCN)c1 | i | 13% | i | 0.4% | 2.1e-08
O=C(CCn1cccc1)N1CCc2ccccc21 | x | 2% | x | 1.0% | x
CCN(CCCNc1ncnc2nc[nH]c12)c1cccc(C)c1 | x | u | x | -3.1% | x
O=C(c1cccs1)N(Cc1cccc(Cl)c1)C1CCS(=O)(=O)C1 (stereo not given) | i | 27% | i | -1.9% | 4.1e-09
CCc1nn2c(=O)cc(N3CCN(c4cc(C)nc5ccccc45)CC3)nc2s1 | i | 14% | i | 0.4% | 6.5e-09
OCCCNCc1ccccn1 | i | -2%[11.4 µM] | i | 0.3%[11.5 µM] | 2.7e-08
CC(C)Cc1cc(-c2ccco2)c(C#N)c(N)n1 | x | u | x | 4.9% | x
CC(=O)c1cc2ccccc2oc1=O | i | -3%[25.6 µM] | i | -1.6%[25.7 µM] | 4.5e-09
Cc1ccc(C(=O)NCc2nnc(SCC(=O)Nc3sc4c(c3C#N)CCCC4)n2C)cc1 | i | 2% | i | -3.1% | 1e-09
Cc1ccc(OCC(=O)NCCO)cc1C | x | -2%[11.4 µM] | x | 0.9% | x
O=C(c1ccncc1)N1CCC[C@@]2(CCN(c3ccccc3)C2)C1 | i | 2% | i | 5.1% | 1e-09
COc1ccc(S(=O)(=O)N2CCC(C(=O)N3CCc4ccccc4C3)CC2)cc1OC | x | u | x | 0.9% | x
COc1ccc(NC(=O)c2ccc(OC)cc2)cc1 | x | -2% | x | 2.8% | x
O=C(O)c1cn[nH]c1-n1cnnn1 | i | -3% | i | -1.0% | 1.9e-09

(further entries)
SMILES | A488 autofl | TSHR ag | Resorufin autofl | AID923 | A647 fluor
CC(=O)O[C@H]1CC[C@@]2(C)[C@@H](CC[C@H]3[C@H]2CC(=O)[C@@]2(C)[C@@H]3C[C@H]3CC(C)=CC(=O)[C@H]32)C1 | i | -1%[11.4 µM] | i | -0.6%[11.5 µM] | 1e-09
Cc1ccc2[nH]c(=O)c3cc(C(=O)N(C)Cc4ccco4)sc3c2c1 | x | 5% | x | 1.7% | x
CC(OC(=O)c1cccs1)C(=O)NCc1ccccc1 (stereo not given) | i | u | i | 0.6% | 1e-09
Cc1cc(NC(=O)c2noc3c2CCc2ccccc2-3)n(-c2ccccc2)n1 | x | -6% | x | 2.2% | x
Cc1cc(C)nc(SCc2nnc(SCC(=O)Nc3ccccc3C)n2Cc2ccco2)n1 | i | 10% | i | 1.2% | 1e-09
CC1CCCCN1C(=O)CSc1nnc(-c2ccco2)n1CC1CCCO1 (stereo not given) | i | 15% | i | 1.2% | 1e-09
CS(=O)(=O)N1CCN(c2ccccc2NC(=O)c2ccc(Cl)cc2)CC1 | i | 8% | i | 1.7% | 3e-08
CCOC(=O)c1c(C)oc2ccc(O)c(CN(C)C)c12 | i | u | i | 1.4% | 1.7e-08
COCC(C)n1c(C)cc(C(=O)COC(=O)c2ccc3ncsc3c2)c1C (stereo not given) | i | 11% | i | 0.5% | 4.4e-09
CC1(C)CC(=O)C(/C=N/n2cnc3ccccc3c2=O)=C(O)C1 | i | -12% | i | 0.8% | 1.8e-08
COc1ccc(S(=O)(=O)N(C)C2CCS(=O)(=O)C2)cc1OC (stereo not given) | i | 1% | i | 1.6% | 1e-09
Cc1cccc(OCC(O)Cn2c(NCc3cccnc3)nc3c2c(=O)[nH]c(=O)n3C)c1 (stereo not given) | i | 45% | i | -0.2% | 2.8e-08
Cc1ccccc1C(=O)N1CCC(C(=O)Nc2ccc(S(=O)(=O)N3CCCC3)cc2)CC1 | i | -1% | i | 0.5% | 3.5e-09
Cc1cc2cc3c(cc2nc1SCC(=O)N1CCN(C(=O)c2ccco2)CC1)OCO3 | i | u | i | -2.4% | 1e-09
O=C(CCS(=O)(=O)c1cccc2nsnc12)N1CCN(C(=O)c2ccco2)CC1 | i | -2% | i | 0.8% | 4.4e-09
Cn1c(=O)oc2cc(S(=O)(=O)NCCC(=O)Nc3ccc4c(c3)OCCO4)ccc21 | i | -1% | i | -2.2% | 3.4e-08
CN(C)S(=O)(=O)Nc1ccc(Br)cc1F | i | 18% | i | -1.5% | 1.1e-08
